# Screening data deposited in PubChem BioAssay by Emory University Molecular Libraries Screening Center.
# Measles inh: inhibitors of measles virus growth in cells, primary screen, measles RdRp inhibitor project, cell-based, single point, HTS. infected Vero cells, GFP fluorescence, 64 h; stronger effect = lower value. z-score (concentration not given with the values). 33,000 compounds, 0.1% hits;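 active = z-score under -3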;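 note: score is relative to mean and SD of the compound wells of a plate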
# * = called active by the depositor.
Measles inh,mol
0.05,O=C(CCNS(=O)(=O)c1ccc(Cl)cc1)N1CCCCC1
-0.33,CC(C)c1c(C#N)c(N)nc(SCC(=O)c2cc3ccccc3oc2=O)c1C#N
1.7,ClCCCN1c2ccccc2Sc2ccc(Cl)cc21
-0.26,O=c1c2ccccc2n(Cc2cccc([N+](=O)[O-])c2)c(=O)n1Cc1ccco1
0.52,CN(C)c1ccc(C(=O)N2CCN(c3ccc([N+](=O)[O-])cc3)CC2)cc1
-1.9,CCOC(=O)c1c(CSc2ccc(Cl)cc2)oc2ccc(O)c(CN(C)C)c12
0.05,COC(=O)c1ccc2c(c1)C1C=CCC1C(c1ccc(Br)cc1)N2 (configuration not stated)
-0.5,O=C(CCS(=O)(=O)c1ccc(Br)cc1)N1CC(=O)N(CCc2ccccc2)C(=O)C1
-0.14,C=CCNC(=O)c1c[nH]c2ccc(S(=O)(=O)N(C)c3cccc(C)c3)cc2c1=O
-0.36,O=C(NCCOc1ccccc1F)Nc1ccc(Br)cc1
-0.98,COc1cccc(C(=O)N2c3ccccc3Sc3ccc(C(F)(F)F)cc32)c1
1.6,CC(C)c1ccc(NC(=O)CSc2nc3[nH]ncc3c(=O)n2-c2cccc(Cl)c2)cc1
-1.2,O=C(NCc1cccs1)c1ccc2c(c1)N(Cc1cccc(Cl)c1)C(=O)CS2
0.51,Cc1nc2c(cc(Oc3nnc(C)c4ccccc34)c3ccsc32)s1
-0.64,CCc1oc2cc(OC(C)C)ccc2c(=O)c1-c1ccc2c(c1)OCCO2
-0.45,CC(C)(C)C1CCc2c(sc(NC(=O)c3ccccc3)c2C(=O)NCc2ccco2)C1 (configuration not stated)
-0.69,COc1ccc(C(=O)N2CC(C)CC(C)C2)cc1OC (configuration not stated)
0.37,O=C(CSc1nc2ccsc2c(=O)n1CCc1ccc(Cl)cc1)c1ccccc1
0.3,Cn1c(C(=O)O)c(CC(=O)N2CCCC2)c2ccccc21
1.2,CC(C)CNC(=O)c1cc(-c2cccc(Br)c2)nc2ccccc12
0.73,CCOc1ccc(-n2c(SCC(=O)N3CCc4ccccc43)nc3c([nH]c4ccccc43)c2=O)cc1
0.42,CCCCCCSc1nnc2c(n1)OC(c1ccsc1)Nc1ccccc1-2 (configuration not stated)
1.1,COc1ccc(CCC(=O)Nc2ccc(-c3noc(Cc4ccc([N+](=O)[O-])cc4)n3)cc2)cc1
0.93,CC(C)(C)C(=O)Nc1ccc(C(=O)Nc2ccc(Sc3ccc([N+](=O)[O-])cc3)cc2)cc1
-0.67,COc1ccc2nc3sc(C(=O)N4CCCC(C)C4)cc3cc2c1 (configuration not stated)
1.2,Cc1ccc(Cl)cc1NC(=O)c1ccc(N2CC3CC(C2)c2cccc(=O)n2C3)c([N+](=O)[O-])c1 (configuration not stated)
0.73,O=C(COC(=O)c1ccc2c(c1)C1C=CCC1C(c1ccc(Br)cc1)N2)c1ccc([N+](=O)[O-])cc1 (configuration not stated)
-1,COC(=O)CN1C(=O)Nc2ccc(Br)cc2C1c1ccccc1 (configuration not stated)
0.02,CCOc1ncccc1C(=O)Nc1ccc2cccc([N+](=O)[O-])c2c1
0.32,CCSc1nnc2c(n1)OC(c1cccn1C)N(C(=O)CC)c1ccccc1-2 (configuration not stated)
0.03,O=c1ccc2ccc(O)c(O)c2o1
0.59,Cc1nc(SCc2ccccc2Cl)c(C#N)c(C)c1C
-0.95,CCc1ccc(-n2nc3ccc(NC(=O)COc4ccc(OC)cc4)cc3n2)cc1
0.16,Cn1c(=O)c2c(nc3n(-c4cccc(Cl)c4)c(-c4ccc(Cl)cc4)cn23)n(C)c1=O
-0.95,Oc1ccc(Br)cc1-c1nc2ccccn2c1NC1CCCC1
1,CCCCc1nc2sc3c(N4CCCCC4)ncnc3c2c2c1COC(C)(C)C2
2,COc1ccc(S(=O)(=O)NC(CC(=O)N2CCCCC2)c2ccco2)cc1 (configuration not stated)
-0.75,O=C(O)c1[nH]c2ccccc2c1CC(=O)N1CCN(c2ccc([N+](=O)[O-])cc2)CC1
-0.96,Fc1ccccc1CSc1nc(NCc2ccco2)c2ccccc2n1
1.1,CC(C)Cn1cc(C(=O)NCCN2CCOCC2)c2c3ccccc3n(C)c2c1=O
0.52,Cc1ccc(Cn2c(Cc3ccccc3)nc3ccccc32)cc1
0.13,Cc1cc(Br)ccc1NC(=O)CCCN1C(=S)NC(C)(C)CC1C (configuration not stated)
0.2,Cc1cc(NC(=O)CSc2nnc(-c3ccc(Cl)s3)o2)no1
-0.82,COCCNC(=O)c1ccc2c(c1)N(Cc1ccccc1C)C(=O)c1ccccc1S2
-0.64,O=c1oc(-c2ccccc2Cl)nc2sc3c(c12)CCC3
0.4,COc1ccc(C2CC(C(F)(F)F)n3nc(C(=O)NCc4cccs4)c(Cl)c3N2)cc1OC (configuration not stated)
2.3,CCC(C)N1C(=O)C2C(C(=O)Nc3cccc(Cl)c3)C3C=CC2(O3)C1C(=O)NC1CCCCC1 (configuration not stated)
-1.4,COc1cc(C2Nc3ccccc3NC3=C2C(=O)CC(c2cccs2)C3)cc(OC)c1OC (configuration not stated)
1.1,COc1cccc(NC(=O)CN2CCCN(S(=O)(=O)c3ccc(F)cc3)CC2)c1
-0.13,O=C(CSc1nc2ccccc2o1)c1ccc(Cl)cc1

# Nothing new here: 5 of the compounds above.
Measles inh,mol
1.2,Cc1ccc(Cl)cc1NC(=O)c1ccc(N2CC3CC(C2)c2cccc(=O)n2C3)c([N+](=O)[O-])c1 (configuration not stated)
0.73,O=C(COC(=O)c1ccc2c(c1)C1C=CCC1C(c1ccc(Br)cc1)N2)c1ccc([N+](=O)[O-])cc1 (configuration not stated)
-1,COC(=O)CN1C(=O)Nc2ccc(Br)cc2C1c1ccccc1 (configuration not stated)
0.02,CCOc1ncccc1C(=O)Nc1ccc2cccc([N+](=O)[O-])c2c1
0.32,CCSc1nnc2c(n1)OC(c1cccn1C)N(C(=O)CC)c1ccccc1-2 (configuration not stated)

# Reprinted at random: 7 compounds from above
Measles inh,mol
-0.36,O=C(NCCOc1ccccc1F)Nc1ccc(Br)cc1
-0.75,O=C(O)c1[nH]c2ccccc2c1CC(=O)N1CCN(c2ccc([N+](=O)[O-])cc2)CC1
0.73,O=C(COC(=O)c1ccc2c(c1)C1C=CCC1C(c1ccc(Br)cc1)N2)c1ccc([N+](=O)[O-])cc1 (configuration not stated)
-1,COC(=O)CN1C(=O)Nc2ccc(Br)cc2C1c1ccccc1 (configuration not stated)
-0.5,O=C(CCS(=O)(=O)c1ccc(Br)cc1)N1CC(=O)N(CCc2ccccc2)C(=O)C1
0.13,Cc1cc(Br)ccc1NC(=O)CCCN1C(=S)NC(C)(C)CC1C (configuration not stated)
-1.4,COc1cc(C2Nc3ccccc3NC3=C2C(=O)CC(c2cccs2)C3)cc(OC)c1OC (configuration not stated)

# (next part)
Measles inh,mol
-0.35,Cc1ccc(C(=O)c2ccc(C)cc2)cc1
0.71,COc1ccc(C)cc1NC(=O)CN1CCN(c2nc(C)cc(C)n2)CC1
0.61,CCCCCCSc1nc2c(c(=O)[nH]c(=O)n2C)n1Cc1ccc(C)cc1
0.46,CC(C)C1NC(=S)N(C2CCCCC2)C1=O (configuration not stated)
1.9,CCOc1ccc(C2C3=C(CC(C)(C)CC3=O)NC3=C2C(=O)CC(C)(C)C3)cc1
-0.53,C=CCn1c(SCC(=O)Nc2ccccc2F)nnc1-c1cccs1
-0.64,CC1CCC(N2CCN(S(=O)(=O)c3ccccc3[N+](=O)[O-])CC2)CC1 (configuration not stated)
-0.13,COc1ccc(C2CC(=O)C3=C(C2)Nc2ccccc2NC3c2cccc(Cl)c2)cc1OC (configuration not stated)
0.12,O=C(NC1CCCCCCC1)c1ccc(CS(=O)(=O)Cc2ccccc2F)o1
0.37,CCOc1cc(C(=S)N2CCCCC2)ccc1OC(=O)c1ccc(OC)cc1
0.99,Cn1ncc([N+](=O)[O-])c1C(=O)Nc1ccccc1C#N
0.23,CCOc1ccccc1CNC(=O)c1cc(=O)[nH]c2ccc(S(=O)(=O)N3CCC(C)CC3)cc12
0.91,NS(=O)(=O)c1ccc(NC(=O)C2CC=CCC2C(=O)N2CCCCC2)cc1 (configuration not stated)
-0.24,COc1ccc(-c2nc3ccccn3c2Nc2ccc(C)cc2)cc1
0.28,Cc1sc2nc3c(C(=O)N4CCOCC4)cccn3c(=O)c2c1C
1.1,CC(C)(C)c1ccc2c(c1)N(CC(=O)NC1CCCCCC1)C(=O)CO2
1.3,COc1cc(C2NC(C(=O)O)CS2)cc(Br)c1O (configuration not stated)
-0.42,COc1ccc(C2C3=C(CC(C)(C)CC3=O)OC3=C2C(=O)CC(C)(C)C3)cc1[N+](=O)[O-]
-0.46,CCCc1ccc2c(N)c(C(=O)Nc3nc(-c4ccccc4)cs3)sc2n1
0.59,O=C(NCc1ccc2c(c1)OCO2)c1ccc(N2C(=O)C3CCCCC3C2=O)cc1 (configuration not stated)
0.06,Cc1cccc(-n2c(=O)c3c4c(sc3n3cnnc23)CCCC4)c1
-0.43,CC1(C)CC(NC(=O)CC2CCCCC2)CC(C)(C)N1
0,CCOc1ccc(NC(=O)C2=C(C)NC(=O)NC2c2ccc(Br)cc2)cc1 (configuration not stated)
-0.02,Cc1ccc(C)c(N2CCN(C(=O)CCCN3C(=S)NC(C)(C)CC3C)CC2)c1 (configuration not stated)
-0.97,Cc1ccc(S(=O)(=O)N=C(Nc2ccccc2)c2ccccc2C)cc1
-0.73,Cc1ccn2c(-c3csc(Nc4ccccc4Cl)n3)c(C)nc2c1
-0.4,COc1cc2c(cc1OC)C(COc1cc(C)cc(C)c1)N(C(=O)Cc1ccccc1)CC2 (configuration not stated)
-0.63,O=c1oc2cc(OCc3ccc(F)cc3)c(Cl)cc2c2c1CCCC2
-0.16,COCCNC(=O)c1c[nH]c2ccc(S(=O)(=O)Nc3cc(C)cc(C)c3)cc2c1=O
-0.77,CCN(CC)S(=O)(=O)c1ccc(NC(=O)c2ccc(OC)c(Br)c2)cc1
-1.1,Cn1c(C(C)(O)C(O)(c2ccccc2)c2ccccc2)nc2ccccc21 (configuration not stated)
0.48,Cc1ccc(CS(=O)(=O)Cc2ccc(C(=O)N3CCc4ccccc4C3)o2)cc1
-0.53,CN1c2ccc(F)cc2C(C)(C)C12C=Cc1cc([N+](=O)[O-])cc(Br)c1O2 (configuration not stated)
-0.88,O=C(NCc1ccc(C(=O)N2CCc3ccccc32)cc1)c1ccc(Br)cc1
-0.08,c1ccc(CN2CCC(N3CCN(Cc4ccco4)CC3)CC2)cc1
-0.02,Cc1cc(C(F)F)nn1CC(=O)N(Cc1ccccc1)c1ccccc1
-1.1,CCc1ccc(C2C(C(=O)OC)=C(C)NC3=C2C(=O)CCC3)cc1 (configuration not stated)
-1.3,CCc1cccc(NC(=O)C2c3ccccc3C(=O)N(C)C2c2cn(C)c3ccccc23)c1 (configuration not stated)
-0.67,Cc1ccc(N2C(=O)CC(Sc3ccccn3)C2=O)cc1 (configuration not stated)
-0.32,Cc1ccc(C(C)C)c(OCC(=O)Nc2nc(C)cc(C)n2)c1
-0.4,Nc1cc([N+](=O)[O-])cc2c1C=Cc1ccccc1O2
-0.1,CCCc1cc(=O)[nH]c(SCc2nc(-c3ccccc3)no2)n1
-0.3,Cc1ccc(NC(=O)CSc2nc3ccc(Br)cc3[nH]2)c(C)c1
0.08,CCOc1ccc(Cc2c(Cl)nc(SC)nc2N(CC)CC)cc1
-0.75,CC(=O)Nc1cc(C(=O)N2CCN(c3cccc(C)c3C)CC2)ccc1S(=O)(=O)c1ccc(C)cc1
-0.1,Cc1ccc(COc2ccc3oc(-c4ccccc4)c(C(=O)O)c3c2)cc1
-0.59,CCN(C(=O)Cn1c([N+](=O)[O-])cnc1C)c1ccccc1
-0.05,O=S(=O)(Nc1ccc(OC(F)(F)F)cc1)c1ccc2nc(-c3ccccc3)[nH]c2c1
-2,COc1ccc(OC)c(Nc2ncnc(N)c2[N+](=O)[O-])c1
1.2,CC(=O)N1CCc2cc(S(=O)(=O)NC(CC(C)C)C(=O)N3CCCCCC3)ccc21 (configuration not stated)

# (more compounds)
Measles inh,mol
-0.45,Cn1c(=O)n(Cc2cccc(I)c2)c(=O)c2c1ncn2Cc1ccccc1
-0.87,COc1ccc(S(=O)(=O)CCC(=O)Nc2nc3ccc(OC)cc3s2)cc1
-0.56,CCOc1ccccc1NC(=O)c1c(NC(=O)Cc2ccccc2)sc2c1CCC2
0.39,Cc1ccc(Cl)cc1NS(=O)(=O)c1ccc2c(c1)CCC(=O)N2
-0.72,COc1ccc2c(c1OC)C(=O)N(c1ccc(F)cc1)C2
-0.53,CCn1c(=O)c(-c2ccc3ccccc3n2)cc2ccccc21
0.9,O=C(Nc1ccc(Cc2ccncc2)cc1)c1cccc(Cl)c1
1.3,CCC(=O)Nc1ccc2nc(SCC(=O)Nc3cccc(Cl)c3C)sc2c1
-1.6,COC(=O)c1c(C)oc2cc(Br)c(OC(C)C(=O)OC)cc12 (configuration not stated)
1.3,O=C(O)CCN1C(=O)c2ccc(S(=O)(=O)c3ccc(C(=O)O)cc3)cc2C1=O
0.56,Cc1ccc(C)c(N2C(=O)c3ccc(Oc4cccc(N)c4)cc3C2=O)c1
-0.88,O=C(CSc1nnc(C2COc3ccccc3O2)o1)N1CCOCC1 (configuration not stated)
0.03,COc1ccc(OCC2c3cc(OC)c(OC)cc3CCN2C(=O)c2cc(Cl)ccc2[N+](=O)[O-])cc1 (configuration not stated)
0.16,CCOC(=O)c1cc2c(=O)n3ccccc3nc2n(C2CCCCC2)c1=NC(=O)c1ccc(OCC)cc1
0.7,CCOC(=O)C1=C(C)N=C2SC(CC)C(=O)N2C1c1ccc(C)cc1 (configuration not stated)
1,CC(C)(C)C(=O)NCCc1nc2ccccc2n1CC(=O)c1ccccc1
-0.79,COc1cccc2cc(C(=O)Nc3nccs3)c(=Nc3cccc(C)c3)oc12
-1.1,O=C(Nc1ccc2c(c1)CCC2)c1ccc2c(=O)n(-c3ccc(F)cc3)c(=S)[nH]c2c1
-0.26,O=C(CN1C(=O)COc2ccccc21)NC1CCCC1
-0.78,CCOCCOC(=O)C1=C(C)NC(=O)CC1c1cccc([N+](=O)[O-])c1 (configuration not stated)
0.39,CC(=O)c1cccc(N=c2oc3ccc4ccccc4c3cc2C(N)=O)c1
-0.85,O=C(NCc1ccccc1Cl)c1cc2c(=O)n3ccccc3nc2s1
0.37,COc1ccc(OC)c(S(=O)(=O)n2ccnc2C)c1

# A portion of the library; rates above refer to the full screens.
